From PubChem
Mtb hypoxia rep – PubChem AID 1159583. M. tuberculosis hypoxia-regulated fluorescent reporter, fluorescence. fluorescence inhibition, % (test concentration not listed). 300,000 compounds, 0.1% hits;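 active means 35 to 45% if threefold the growth effect, above 45% if 1.5-fold the growth effect; inactive means the rest, general growth blockers included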;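 further: wells of about 50 µL received 100 nL stock; 0% = vehicle wells and 100% = reference inhibitor wells; whole bacteria with a GFP reporter of the hypoxia response; strong numbers were not always called active; many hits fall short of the cut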
Sa RN4220 lethal – growth inhibition of S. aureus RN4220, primary screen, OD600; inhibition, % (no concentration beside the values); 16 h; 330,000 compounds, 0.33% hits;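 active means z-score of -3 or lower and OD600 up to 0.18 on both plates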;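 further: plate controls were untreated cells for no effect and reference antibiotic for full effect; stock transfer was 100 nL into about 80 µL; one replicate is shown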
Sa ugtP lethal – growth inhibition of ugtP-null S. aureus, primary screen, RN4220 ugtP deletion, OD600. 330,000 compounds, 0.54% hits. 16 h; some inactives read as strong as hits. growth inhibition, % (concentration not given with the values);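 active means z-score under -3 and OD600 up to 0.15 on both plates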;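 further: plate controls were untreated wells for no effect and antibiotic for full effect; wells of about 80 µL received 100 nL stock; the first replicate is given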
PrP 5UTR inh – inhibition of PrP 5' UTR reporter expression. cell-based PrP 5' UTR mRNA reporter, plate reader. inhibition, % (concentration not given with the values). 340,000 compounds, 0.35% hits. AID 488862, 2010;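 active means every replicate at 50% or more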;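 further: 0 = median of the neutral control wells; tested in H4 reporter cells; numbers are from one replicate; inactives centre near -14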
Bead autofluor – counter-screen for toxin protease inhibitors: compound fluorescence | fluorescence intensity (no concentration beside the values) | compound autofluorescence counterscreen, microsphere flow cytometry; hits give high values | 360,000 compounds, 3.1% hits;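 active means at least 3 SD above the mean of all compounds, about 16000 in these data; inconclusive means too few beads counted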;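 further: 100 nL of 1 mM stock went into each well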
BJeLR lethal – MLPCN primary cell-based screen for lethality selective to Ras in HRASV12 cells | inhibition, % (no concentration beside the values) | 300,000 compounds, 0.17% hits | BJeLR (HRASV12) viability, CellTiter-Glo ATP luminescence, 48 h; reference of the scale not given here;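 active means replicate mean above 50%; inconclusive means above 50% but judged a plate artefact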;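 further: 50 nL library stock added to about 25 µL; numbers are from one replicate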
Mtb hypoxia rep growth – recorded beside Mtb hypoxia rep, whose call it bears; growth inhibition, %; measured here: M. tuberculosis growth (absorbance);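 0% = vehicle and 100% = reference antibiotic; read after six days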
Numbers without * were called inactive; ? = inconclusive; nt = no result given.

item	structure	Mtb hypoxia rep	Mtb hypoxia rep growth	Sa RN4220 lethal	Sa ugtP lethal	PrP 5UTR inh	Bead autofluor	BJeLR lethal
1	NC(=O)CC(NC(=O)Cc1ccc(Br)cc1)c1ccc(N2CCCCCCC2)c([N+](=O)[O-])c1 (stereo not given)	1	0	0.5	-24	-28	3419	-1
2	O=C(Nc1ccc2c(c1)OCCO2)C1CCCN1S(=O)(=O)c1cccc2cccnc12 (stereo not given)	nt	nt	-0.1	5	-11	4808	11
3	COc1ccc(CC(=O)Nc2ccc(-c3cn4ccc(C)cc4n3)cc2)cc1	10	6	3.5	-6	-79	4269	6
4	S=C(NCC1CCCO1)NC1CC1 (stereo not given)	15	5	2.9	-7	-15	3510	-9
5	CC(C)(C)c1cc(C(=O)NN)n(Cc2ccc(Cl)cc2Cl)n1	-3	-1	-1.0	-3	-11	3887	4
6	CN1CC=C2C(C#N)=C(N)C(C#N)(C#N)[C@H](c3ccoc3)[C@H]2C1	nt	nt	1.5	0	-2	2574	0
7	CC(CNC(=O)c1cc(COc2c(F)cccc2F)on1)c1ccccc1 (stereo not given)	-1	-3	-1.2	-4	4	5291	4
8	COc1ccc(/C(O)=C2/C(=O)C(=O)N(CCCN(C)C)C2c2ccc(C)o2)cc1Cl (stereo not given)	8	6	5.4	-3	nt	nt	3
9	COC(=O)c1ccc(N2C(=O)CC(SCCN)C2=O)cc1 (stereo not given)	1	11	4.1	-3	-45	3564	11
10	COc1ccc2c(C(=O)NCCCCO)c(-c3ccc(S(C)(=O)=O)cc3)sc2c1	4	-2	4.6	-2	-27	3971	nt
11	O=P(Cc1cc[n+]([O-])cc1)(c1ccccc1)c1ccccc1	10	1	4.2	-3	-8	2531	-4
12	Cc1ccc(-n2ncc3c(Nc4cccc(C(=O)O)c4)ncnc32)cc1	10	14	-16	-5	-35	2484	3
13	O=C(CN(c1ccc(F)cc1)S(=O)(=O)c1ccccc1)NC1CC2CCC1C2 (stereo not given)	5	2	8.0	12	-1	4202	16
14	COc1ccc(/C=C(/C#N)C(=O)Nc2ccc(O)cc2)cc1C(=O)O	nt	nt	nt	nt	-15	4531	-2
15	COc1cc(CCCN2C(N)=NC[C@H]2Cc2ccc(O)cc2)cc(OC)c1OC	nt	nt	nt	nt	-18	2987	16
16	Cc1ccc(SCC(=O)OCC(=O)Nc2ccc3[nH]c(=O)[nH]c3c2)cc1C	-3	11	-0.8	2	-5	5479	2
17	CN1CCN(C(=O)c2ccccc2[N+](=O)[O-])CC1	9	-2	1.2	10	-13	2971	3
18	CCN1C(=S)SC(=O)C1=C1C=C(C)N(Cc2ccco2)C(C)=C1	11	2	22	19	-72	3814	7
19	Cc1ccc(N(C)S(=O)(=O)c2cccc(C(=O)Nc3ccc(C)cn3)c2)cc1	0	3	4.9	-12	12	?	-4
20	O=C(COC(=O)COc1ccccc1)NCc1ccccc1	1	4	0.0	6	-3	4292	7

Records 12–20 from above:
item	structure	Mtb hypoxia rep	Mtb hypoxia rep growth	Sa RN4220 lethal	Sa ugtP lethal	PrP 5UTR inh	Bead autofluor	BJeLR lethal
12	Cc1ccc(-n2ncc3c(Nc4cccc(C(=O)O)c4)ncnc32)cc1	10	14	-16	-5	-35	2484	3
13	O=C(CN(c1ccc(F)cc1)S(=O)(=O)c1ccccc1)NC1CC2CCC1C2 (stereo not given)	5	2	8.0	12	-1	4202	16
14	COc1ccc(/C=C(/C#N)C(=O)Nc2ccc(O)cc2)cc1C(=O)O	nt	nt	nt	nt	-15	4531	-2
15	COc1cc(CCCN2C(N)=NC[C@H]2Cc2ccc(O)cc2)cc(OC)c1OC	nt	nt	nt	nt	-18	2987	16
16	Cc1ccc(SCC(=O)OCC(=O)Nc2ccc3[nH]c(=O)[nH]c3c2)cc1C	-3	11	-0.8	2	-5	5479	2
17	CN1CCN(C(=O)c2ccccc2[N+](=O)[O-])CC1	9	-2	1.2	10	-13	2971	3
18	CCN1C(=S)SC(=O)C1=C1C=C(C)N(Cc2ccco2)C(C)=C1	11	2	22	19	-72	3814	7
19	Cc1ccc(N(C)S(=O)(=O)c2cccc(C(=O)Nc3ccc(C)cn3)c2)cc1	0	3	4.9	-12	12	?	-4
20	O=C(COC(=O)COc1ccccc1)NCc1ccccc1	1	4	0.0	6	-3	4292	7

Part of the list above in another layout.
Every second line gives: Mtb hypoxia rep, Mtb hypoxia rep growth, Sa RN4220 lethal, Sa ugtP lethal, PrP 5UTR inh, Bead autofluor, BJeLR lethal
6	CN1CC=C2C(C#N)=C(N)C(C#N)(C#N)[C@H](c3ccoc3)[C@H]2C1
→ nt, nt, 1.5, 0, -2, 2574, 0
7	CC(CNC(=O)c1cc(COc2c(F)cccc2F)on1)c1ccccc1 (stereo not given)
→ -1, -3, -1.2, -4, 4, 5291, 4

Further results:
item	structure	Mtb hypoxia rep	Mtb hypoxia rep growth	Sa RN4220 lethal	Sa ugtP lethal	PrP 5UTR inh	Bead autofluor	BJeLR lethal
21	Cc1ccc(C(=O)Nc2nc(=O)n(C)s2)cc1	7	11	2.6	-4	-46	22548*	3
22	CCCCNC(=O)C1CCN(C(=O)Nc2ccc(C)cc2)CC1	-71	-17	0.2	0	10	6543	-9
23	CCc1ccccc1N(CC(=O)OC)S(C)(=O)=O	5	11	-3.7	0	0	4742	-2
24	O=[N+]([O-])c1cccc(COc2ncnc3cc([N+](=O)[O-])ccc23)c1	nt	nt	nt	nt	-8	5365	0
25	CCOc1ccc(-c2csc(NC(=O)CSCC(=O)O)n2)c2ccccc12	13	9	4.3	18	-6	3351	0
26	C=CCn1c(SCC(=O)Nc2sc3c(c2C#N)CCC(C)C3)nc2cc(C(=O)O)ccc2c1=O (stereo not given)	14	-4	3.6	4	-2	3038	nt
27	CC(=O)NC1(c2ccccc2)CCN(C(=O)N2CCOCC2)CC1	nt	nt	1.3	5	-20	2260	4
28	CN1CCC(N(C)C(=O)c2cc(S(=O)(=O)N(C)c3ccccc3)ccc2Cl)CC1	5	-2	1.5	-1	1	4273	nt
29	COc1ccccc1CN1CCCCC1c1cccnc1 (stereo not given)	5	0	2.6	2	-2	22672*	-5
30	O=C(CCN1CCN(Cc2ccccc2)CC1)NNC(=O)Cc1ccc(Cl)c(Cl)c1	9	-2	2.7	7	-9	2351	-16
31	CCC1CCCCN1CCCNC(=O)c1ccc2nc(N3CCC(C)CC3)sc2c1 (stereo not given)	2	-2	4.3	11	-105	4413	7
32	CC(=O)NC(CC(=O)O)c1ccc([N+](=O)[O-])cc1 (stereo not given)	-20	-8	2.3	2	-13	6389	19
33	CC1CN(C(C)CO)C(=O)c2cccc(NC(=O)NC3CCCCC3)c2OC1CN(C)S(=O)(=O)c1ccccc1 (stereo not given)	9	16	3.3	2	nt	nt	nt
34	Cc1ccc(C=NNC(=O)c2ccc(NC(=O)c3ccccc3Cl)cc2)o1	8	3	-2.4	3	nt	nt	nt
35	OC(COCc1ccc(Cl)cc1)CN1CCN(CC(O)COCc2ccc(Cl)cc2)CC1 (stereo not given)	1	3	-4.9	-9	-16	9368	3
36	COc1cc(/C=C/C(=O)OCC(=O)c2c[nH]c3ccccc23)ccc1OC(F)F	8	2	6.5	8	3	2262	-7
37	COc1ccc(OCCC(=O)Nc2cc3c(cc2C(=O)O)OCCCO3)cc1	-1	-2	2.3	37	-39	5922	nt
38	CC(C)OCCCNC(=S)NNC(=O)c1ccc(Cl)c(Cl)c1	2	5	-0.5	-4	-11	4647	0
39	Cc1ccccc1NS(=O)(=O)c1ccc(C)c(C(=O)N2CCOCC2)c1	6	-6	3.6	3	-3	4787	1
40	COc1ccc(-c2cc3ncnc(Cl)c3s2)cc1	nt	nt	nt	nt	-43	7134	-9

item	structure	Mtb hypoxia rep	Mtb hypoxia rep growth	Sa RN4220 lethal	Sa ugtP lethal	PrP 5UTR inh	Bead autofluor	BJeLR lethal
41	COc1cccc(N(C(=O)c2csnn2)C(C(=O)NC2CCCC2)c2ccccc2)c1 (stereo not given)	5	-5	2.5	-3	-30	3833	-10
42	COc1ccc(-c2nc(CSCC(=O)N3CCN(C4CCCCC4)CC3)c(C)o2)cc1OC	nt	nt	4.1	2	-14	6222	-9
43	COC(=O)c1c(C)oc2ccc(OC(=O)c3cccs3)cc12	1	2	-11	3	-23	?	-8
44	Cc1ccc(-c2nnc(SCC(=O)Nc3ccc4c(c3)oc3ccccc34)n2C)c(Cl)c1	-13	2	-8.0	16	-38	5925	12
45	Cc1cc(C(=O)N(C)CC2CCCN(CCc3ccc(F)cc3)C2)c(C)o1 (stereo not given)	-2	-3	1.7	10	4	4312	9
46	CCOC(=O)c1c(C)n(C)c2ccc(OC)c(NS(=O)(=O)c3ccc(Cl)s3)c12	6	4	12	3	-14	8838	-2
47	CCOc1ccc(N2C(=O)/C(=C\c3ccc(O)c(OC)c3)S(=O)(=O)C2c2cccc([N+](=O)[O-])c2)cc1 (stereo not given)	5	0	3.2	0	-56	4486	1
48	S=c1[nH]nc(C2CCCCC2)n1/N=C/C(Cl)=C\c1ccccc1	nt	nt	nt	nt	-22	2498	18
49	Cc1ccccc1Cn1c(NC2CCCC2)nc2c1c(=O)[nH]c(=O)n2C	5	4	0.7	11	-12	3837	17
50	Cc1nn(-c2ccccc2)c(N)c1C(c1ccc(C(C)C)cc1)c1c(C)nn(-c2ccccc2)c1N	nt	nt	nt	nt	-1	9688	-10
51	Clc1nssc1=Nc1ccc(Br)cc1	10	1	6.7	12	-52	3207	7
52	CCn1c2ccccc2c2cc(N=C3SC(CC(=O)Nc4ccccc4)C(=O)N3C)ccc21 (stereo not given)	8	8	-11	-19	-11	3498	9
53	COc1ccc(NC(=O)CC2C(=O)N(c3ccc(Cl)cc3)C(=S)N2CCc2ccccn2)cc1 (stereo not given)	6	6	0.4	-21	-8	8931	-3
54	COc1c(C)cccc1C(=O)Nc1ccc(CN2CCCCC2)cc1	13	18	2.8	-1	-46	10865	-7
55	Cn1ccnc1SCC(=O)NCC(=O)Nc1ccc(F)c(F)c1F	-4	3	-0.8	-1	-15	5376	nt
56	Cc1cc(C)c2ccc(=O)n(CC(=O)NN=Cc3ccccc3Cl)c2n1	6	8	1.5	3	nt	nt	nt
57	COc1ccc(O)c(/C=N/NC(=O)c2cc(=O)[nH]c3ccccc23)c1	nt	nt	nt	nt	-6	4416	1
58	CC(C)(C)NC(=O)C(c1ccco1)N(C(=O)c1ccc(CN2CCOCC2)o1)c1ccccc1 (stereo not given)	-13	-12	2.5	5	-4	12899	2
59	Cc1scc(C(=O)N/N=C/c2ccc(OCC(C)C)cc2)c1C	nt	nt	nt	nt	-15	2919	5
60	CCO[C@@H]1OC(C(=O)N2CCN(Cc3ccccc3)CC2)=C[C@H](c2ccc(C(F)(F)F)cc2)[C@H]1CCCO	nt	nt	nt	nt	-1	4100	0

item	structure	Mtb hypoxia rep	Mtb hypoxia rep growth	Sa RN4220 lethal	Sa ugtP lethal	PrP 5UTR inh	Bead autofluor	BJeLR lethal
61	CCCCCn1c2c(c(=N)c3ccccc31)CCC2	5	5	3.4	5	-22	nt	2
62	O=S(=O)(c1cccc(-c2n[nH]c(=S)n2-c2cccc(C(F)(F)F)c2)c1)N1CCOCC1	3	-3	2.6	3	-33	4720	nt
63	COc1ccc(C(=O)NCC(c2ccco2)N2CCc3ccccc3C2)cc1 (stereo not given)	4	4	0.6	6	-36	6110	7
64	O=C(O)CC1SC(=NN=C2CCCCC2)N(c2ccccc2)C1=O (stereo not given)	-4	7	1.3	-1	nt	nt	nt

Not a hit list. Share with any hit: about 4%.
